Hedgehog cleavage – Hh protein inhibition, biochemical readout – plate reader, single concentration, primary screen (AID 588832) | Biochemical plate reader assay, Hedgehog inhibition; hits give high values | inhibition, % at 30.3 µM | 8,000 tested, under 10 active; in the data active means inhibition from about 57%;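 further: 0% = neutral control wells and 100% = positive control wells; cholesterol-driven self-cleavage of fly hedgehog protein by fluorescence polarization; read one hour after cholesterol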
Active calls of the source: *. An excerpt; count on the stated rates, not on these rows.

Hedgehog cleavage | canonical_smiles
7 | CCCn1c(CNC(=O)c2cccs2)nc2ccccc21
-2 | COc1cccc(C2c3[nH]c4ccccc4c3C[C@H]3C(=O)N(c4ccccc4C(=O)N4CCC[C@H]4C(=O)O)C(=O)N23)c1 (stereo partly drawn)
9 | COc1cc(-c2cc(=O)c3c(O)c(OC)c(OC)cc3o2)cc(OC)c1O
-1 | CCCCCSc1nc2c(c(=O)[nH]c(=O)n2C)n1C
-2 | O=C(c1ccco1)N1CCN(C(=O)C2CC(c3ccc(F)cc3)=NO2)CC1 (stereo not drawn)
4 | Cc1c(OC(C)C(=O)N[C@@H](Cc2ccccc2)C(=O)O)ccc2c3c(c(=O)oc12)CCCC3 (stereo partly drawn)
8 | COc1ccc(C2CC(c3cccc(C)c3)n3nc(N)nc3N2)cc1 (stereo not drawn)
4 | C=CCOc1cccc(C2c3c(oc4ccccc4c3=O)C(=O)N2c2ccccn2)c1 (stereo not drawn)
13 | Cc1ccc2c(c1)N(CC(=O)NC1CCCCC1)C(=O)c1cccnc1O2
7 | CC(C)=C[C@H]1C[C@H](C)[C@H]2CC[C@H](C)c3c(O)c(O[C@H]4OC[C@H](O)[C@@H](O)[C@@H]4O)c(C)c1c32
5 | Cc1ccccc1-c1nc(CS(=O)(=O)CC(=O)NCc2ccc3c(c2)OCO3)c(C)o1
4 | COc1cc(C2C(C(=O)Nc3ccc(F)cc3)=C(C)Nc3nc(CCCO)nn32)cc(OC)c1OC (stereo not drawn)
2 | CCn1c(SCC(=O)N2CCCC2)nc2c(c1=O)SC(C)C2 (stereo not drawn)
8 | O=C1NCCNC1(c1c[nH]c2ccccc12)C(F)(F)F (stereo not drawn)
7 | Cc1ccccc1NS(=O)(=O)c1nnc(NC(=O)c2ccccc2F)s1
7 | CC1CCN(c2oc(-c3ccccc3F)nc2C#N)CC1
10 | O=C1C=C(O)c2cccc(O)c2C1=O
3 | NC(=O)NCCCC(=O)O
11 | Nc1ccc(O)c2c1C(=O)c1ccccc1C2=O
19 | O=C1c2ccccc2C(O)N1CCN1CCOCC1 (stereo not drawn)
15 | O=C(COc1ccccc1)Nc1nnc(C23CC4CC(CC(C4)C2)C3)s1
-1 | Cc1cccc(NC(=O)CSc2nc(C)nc3c2c(=O)n(C)c(=O)n3C)c1
-16 | COC(=O)C1=COC(C)C2CN3CCc4c([nH]c5ccccc45)C3CC12 (stereo not drawn)
7 | COc1ccc(CNC(=O)[C@@H](C)NC(=O)[C@@H]2Cc3ccccc3CN2)cc1
7 | COc1cc(OC)c2c(=O)cc(-c3ccccc3)oc2c1
15 | CC(=O)c1cccc(NC(=O)c2cnn3ccccc23)c1
8 | CCn1c(=O)cc(N2CCN(Cc3ccccc3)CC2)[nH]c1=O
6 | COc1cccc(NC(=O)Cn2cc3c(n2)CCCCC3)c1
2 | COc1ccc(-c2cc(=O)oc3c(C)c(OCC(=O)NCC4CCC(C(=O)O)CC4)ccc23)cc1 (stereo not drawn)
10 | O=C(NCc1cccc(Cl)c1)C1CCN(c2nnc(N3CCCC3=O)s2)CC1
2 | O=C(c1ccc(NC2=NC3CS(=O)(=O)CC3S2)cc1)N1CCN(C(=O)c2ccco2)CC1 (stereo not drawn)
-25 | COc1ccc(C2c3c(oc4ccccc4c3=O)C(=O)N2c2ccccn2)cc1 (stereo not drawn)
6 | CN(C)c1ccc(C2N(c3ccc(Cl)cc3)C(=O)C3CCCN32)cc1 (stereo not drawn)
9 | O=C(CSc1nnc2scc(-c3ccccc3)n12)c1ccc2c(c1)OCCO2
2 | O=c1c(-c2ccccc2)coc2cc(O)ccc12
2 | O=S(=O)(NCc1csc(-c2cccnc2)n1)c1ccc(Cl)s1
5 | COc1ccc(-c2cc3c(=O)n(CC(=O)NCc4ccc(C)cc4)ncn3n2)cc1
4 | Cc1cc(Nc2ccc(Br)cc2F)n2nc(C)nc2n1
5 | O=S(=O)(NCC(c1cccnc1)N1CCN(c2ccc(F)cc2)CC1)c1cccs1 (stereo not drawn)
25 | C=CCn1cc(C(=O)NCCCOC)c(=O)c2cc(S(=O)(=O)N3CCC(C)CC3)ccc21
14 | CCc1cc(=O)oc2c(C)c(OCC(=O)NCC3CCC(C(=O)O)CC3)ccc12 (stereo not drawn)
21 | COc1ccc(-n2c(Cc3cccn3C)nnc2SCC(=O)Nc2ccc(C)cc2)cc1
10 | Cc1cc(Nc2cc(C(=O)O)ccc2C)n2ncnc2n1
1 | CCOC(=O)c1c(NC(=O)Cc2ccccc2)sc2c1CCN(CC)C2
6 | COc1ccc(NS(=O)(=O)c2c(C)n(C)c(=O)n(C)c2=O)cc1OC
7 | CCCCn1c(CNC(C)=O)nc2ccccc21
12 | Cc1ccc(N(CC(=O)NC2CCC(C)CC2)S(=O)(=O)c2cccnc2)cc1 (stereo not drawn)
2 | COc1ccc(C(=O)Nc2c(N)nc(SCC(=O)N3CCCCCC3)[nH]c2=O)cc1OC
-2 | Cc1ccc(N(C)S(=O)(=O)c2cc3c(cc2C)NC(=O)CO3)cc1
5 | O=C(NCCc1csc(-c2cccnc2)n1)c1cccc2ccccc12
5 | CCc1nnc(NC(=O)C(C)Sc2ccccc2)s1 (stereo not drawn)
5 | CCOCCn1c(CN2CCN(CC)CC2)nc2c1c(=O)n(C)c(=O)n2C
5 | COc1cccc(-c2nc(CS(=O)(=O)CC(=O)N3CCN(C4CCCCC4)CC3)c(C)o2)c1
5 | COCCN1Cc2cccc(C(=O)N3CCN(c4cc(C)ccc4C)CC3)c2C1=O
2 | Cc1cccc([N+](=O)[O-])c1C(=O)O
10 | Cc1onc(C(=O)N2CCN(C(c3ccccc3)c3ccccc3)CC2)c1[N+](=O)[O-]

The list continues.
Hedgehog cleavage | canonical_smiles
22 | CSc1cccc(NS(=O)(=O)c2ccc3c(c2)oc(=O)n3C)c1
10 | CCOc1ccc(-n2c(Cc3cc(=O)[nH]c(=O)[nH]3)nnc2SCC(=O)OC)cc1
5 | CC(C)c1cccc(O)c(=O)c1
6 | CC(C)OC(=O)C1C2C=CC3(CN(C(C)c4ccc(Br)cc4)C(=O)C13)O2 (stereo not drawn)
5 | CC(C(=O)N1CCN(Cc2ccccc2)CC1)n1ncn2cccc2c1=O (stereo not drawn)
5 | CCC(C)[C@H](NC(=O)c1cc2cc(Cl)ccc2n1C)C(=O)N1CCC[C@H]1C(=O)O (stereo partly drawn)
0 | CC(C)=CCc1cc(-c2oc3cc(O)cc(O)c3c(=O)c2O)ccc1O
5 | CC(=O)c1ccc(Nc2cc(C)nc3nc(C)nn23)cc1
3 | COCC(C)NC(=O)c1cc(-c2ccc(O)cc2)on1 (stereo not drawn)
-10 | COc1ccc(-n2c(Cc3cccn3C)nnc2SCC(=O)NCc2ccco2)cc1
0 | O=C(CCS(=O)(=O)c1ccccc1)Nc1nc2c(s1)CCCC2
5 | C=C1[C@@H](OC(C)=O)C=C[C@@]2(C)C=CC(=O)[C@@](C)(OC(C)=O)[C@@H]2[C@@H](OC(C)=O)[C@]2(O)[C@@H](C)C(=O)O[C@H]2[C@H]1Cl
7 | O=C(NCc1ccccc1)C(=O)NCC1OCCN1S(=O)(=O)c1cccs1 (stereo not drawn)
23 | O=C(Nc1ccc(F)cc1)c1ccc2c(=O)n3c(nc2c1)CCCCC3
6 | CC(C)C(=O)Nc1nc2cc3c(cc2s1)OCO3
7 | COc1ccc(Cl)cc1NC(=O)CSc1nnc(Cn2c(=O)sc3ccccc32)n1C
2 | Cc1nc2sccn2c(=O)c1S(=O)(=O)N1CCN(c2ccc(F)cc2)CC1
5 | CCOc1ccccc1C1N(c2ccc(OC)cc2)C(=O)C2CCCN21 (stereo not drawn)
3 | CCCc1cc(=O)oc2c3c(cc(OCC(=O)N4CCC(C(=O)O)CC4)c12)OC(C)(C)CC3
-6 | CNC(=O)C1CCN(S(=O)(=O)c2c(C)noc2/C=C/c2ccc(C)cc2)CC1
25 | COc1ccc(N(C)C(=O)c2cc3c(s2)-c2ccccc2OC3)c(OC)c1
8 | CCOCCn1c(CN2CCOCC2)nc2c1c(=O)[nH]c(=O)n2C
7 | CC(Oc1ccc2c(-c3ccccc3)cc(=O)oc2c1)C(=O)N[C@H](Cc1c[nH]c2ccccc12)C(=O)O (stereo partly drawn)
-2 | Cc1ccc(C)c(N2CCN(C(=O)CCc3nc4ccccc4[nH]3)CC2)c1
4 | Cc1ccc(C2=NS(=O)(=O)N(C)C(C(=O)NCc3ccc4c(c3)OCO4)=C2)cc1
4 | COc1ccc(C(CC(=O)O)NC(=O)c2ccccc2[N+](=O)[O-])cc1 (stereo not drawn)
2 | Cc1ccccc1NC(=O)c1ccc2snnc2c1
0 | CCCCCCCCCCCCCC(=O)O
4 | CCOC(=O)CSC(CC)C(=O)Nc1nnc(C(C)C)s1 (stereo not drawn)
16 | CCN(CC)CCCNC(=O)c1cn(C)c2ccc(S(=O)(=O)N(C)C)cc2c1=O
4 | CCOC(=O)CSC(CC)C(=O)Nc1nnc(CC)s1 (stereo not drawn)
21 | O=C(O)c1cc(-c2cccs2)nc2cc3c(cc12)OCCO3
-3 | CC[C@H](C)/C=C(C)/C=C/C1=CC2=CC(=O)[C@]3(C)OC(=O)[C@@H](C(C)=O)[C@@H]3C2=CO1
4 | CCn1c(C(C)NC(=O)c2cccc(C)c2)nc2ccccc21 (stereo not drawn)
9 | Cn1ccc(O)c(C#N)c1=O
5 | COC(=O)c1c(NC(=O)Cc2ccccc2)sc2c1CCN(C(C)C)C2
15 | CCN(CCNC(=O)Cn1cc2c(n1)CCCC2)c1ccccc1
5 | Cc1c(S(=O)(=O)N2CCOCC2)c(=O)n(C)c(=O)n1C
10 | Cc1nc2ccccc2c2oc(C(=O)N3CCN(C(=O)c4ccco4)CC3)cc12
7 | O=C(CN1CCN(c2ccccc2)CC1)c1ccc2cc[nH]c2c1

Arranged by value in Hedgehog cleavage (low to high): 6 of the compounds above
Molecule | Hedgehog cleavage
CC[C@H](C)/C=C(C)/C=C/C1=CC2=CC(=O)[C@]3(C)OC(=O)[C@@H](C(C)=O)[C@@H]3C2=CO1 | -3
Cc1c(S(=O)(=O)N2CCOCC2)c(=O)n(C)c(=O)n1C | 5
O=C(CN1CCN(c2ccccc2)CC1)c1ccc2cc[nH]c2c1 | 7
Cn1ccc(O)c(C#N)c1=O | 9
Cc1nc2ccccc2c2oc(C(=O)N3CCN(C(=O)c4ccco4)CC3)cc12 | 10
CCN(CCNC(=O)Cn1cc2c(n1)CCCC2)c1ccccc1 | 15

Next records follow.
Hedgehog cleavage | canonical_smiles
10 | C=CCn1c(=NC(=O)CN2C(=O)CCC2=O)sc2cccc(OC)c21
15 | CCS(=O)(=O)NCc1csc(-c2ccccc2)n1
17 | COc1cccc(Cn2nnc(C(=O)NCc3ccccc3Cl)c2N)c1
5 | C/C(C=O)=C/c1ccccc1
4 | COc1ccc(NC(=O)c2cc(C3CC3)on2)c(OC)c1
4 | COc1ccc(C2C(C(=O)Nc3cccnc3)=C(C)Nc3nc(-c4cccs4)nn32)cc1OC (stereo not drawn)
7 | O=C(NCCc1cn2ccsc2n1)C1CCCCC1
2 | O=C1Cc2cc(S(=O)(=O)N3CCN(c4cccc(Cl)c4)CC3)ccc2N1
12 | CC(NC(=O)c1cc2c(=O)n(C)c3ccccc3c2n1C)c1ccc2c(c1)OCCO2 (stereo not drawn)
15 | CC1=C(C(=O)OCc2ccccc2)C(c2ccco2)n2ncnc2N1 (stereo not drawn)
-5 | O=C(Cn1cnc2c(nnn2Cc2ccccc2)c1=O)c1ccc(Cl)cc1
24 | CSc1ccc(Cn2nnc(C(=O)NCc3ccccc3)c2N)cc1
4 | COC(=O)CN1C(=O)CC(C)(C)S(=O)c2ccccc21 (stereo not drawn)
0 | O=C(Cn1ncc2c3ccccc3n(Cc3ccccc3F)c2c1=O)N1CCN(c2ccccn2)CC1
-2 | CCOC(=O)c1c(CSc2ccccc2)n(C)c2ccc(O)c(CN3CCOCC3)c12
-2 | O=C1c2ccccc2C(Nc2ccc(Cl)cc2)N1CCN1CCOCC1 (stereo not drawn)

Of the compounds above, two contain a cyano group.
Hedgehog cleavage | canonical_smiles
7 | CC1CCN(c2oc(-c3ccccc3F)nc2C#N)CC1
9 | Cn1ccc(O)c(C#N)c1=O

The results go on.
Hedgehog cleavage | canonical_smiles
9 | O=C1NCC(=O)N2CCC[C@@H]12
4 | Cc1nn(C)c(C)c1S(=O)(=O)N1CCC(C(=O)NC(C)c2ccccc2)CC1 (stereo not drawn)
19 | CCN1CCN(C(=O)C2CCN(c3nnc(-n4c(C)ccc4C)s3)CC2)CC1
7 | O=C(O)[C@H](O)[C@@H](O)C(=O)O
5 | O=C(Nc1ccccc1Cl)N1CCSc2ccccc21
17 | O=C(CN1CCOc2ccccc21)NCc1ccc(F)cc1
17 | CCOC(=O)c1cc(-c2nnc(-c3ccc(Oc4ccccc4)cc3)o2)c(C)nc1C
14 | COc1cccc(-c2nc(CS(=O)CC(=O)NCc3ccc4c(c3)OCO4)c(C)o2)c1 (stereo not drawn)
2 | Cc1cccc(/C=C/c2onc(C)c2S(=O)(=O)N2CCC(C(=O)NC(C)(C)C)CC2)c1
2 | COc1ccccc1NC(=O)CSc1nc2ccccc2nc1N1CC(C)OC(C)C1 (stereo not drawn)
-2 | CCOc1ccccc1/C=C/c1onc(C)c1S(=O)(=O)N1CCC(C(=O)NC)CC1
5 | CC(=O)Nc1sc2c(c1-c1nc3ccccc3s1)CCN(C(C)C)C2
7 | C[C@@H](NC(=O)C1(c2ccccc2)CCN(C(=O)OC(C)(C)C)CC1)C(=O)N[C@@H](Cc1ccccc1)C(=O)O
7 | COc1ccc(C(=O)NCCCc2nc3ccccc3n2Cc2ccccc2C)cc1OC
12 | Cn1c(C(=O)NCCCN2CCN(c3cccc(Cl)c3)CC2)cc2c(=O)n(C)c3ccccc3c21
4 | COC(=O)c1cc(OC)cc(O)c1C(=O)c1c(O)cc(C)cc1O

Entries listed so far with a furan ring, fused or not, in the order listed:
Hedgehog cleavage | canonical_smiles
-2 | O=C(c1ccco1)N1CCN(C(=O)C2CC(c3ccc(F)cc3)=NO2)CC1 (stereo not drawn)
2 | O=C(c1ccc(NC2=NC3CS(=O)(=O)CC3S2)cc1)N1CCN(C(=O)c2ccco2)CC1 (stereo not drawn)
-10 | COc1ccc(-n2c(Cc3cccn3C)nnc2SCC(=O)NCc2ccco2)cc1
10 | Cc1nc2ccccc2c2oc(C(=O)N3CCN(C(=O)c4ccco4)CC3)cc12
15 | CC1=C(C(=O)OCc2ccccc2)C(c2ccco2)n2ncnc2N1 (stereo not drawn)
